From PubChem
SARS PLP yeast = inhibitors of SARS-CoV papain-like protease in yeast. S. cerevisiae expressing SARS-CoV PLpro, growth rescue; control for the full effect not named in the record. Potency, µM (titrated, usually from 32.9 µM), inactives show at the top dose activity, positive = growth rescue. 330,000 compounds, 0.19% hits. AID 485353; note: 0% is about no effect; nearly all actives have a fitted effect of over 55% in size; growth read by luminescence after 48 h
Lassa entry inh = blocks Lassa virus binding to or entry into cells; Lassa virus pseudotype entry inhibition, cell reporter; control for the full effect not named in the record; Potency, µM (top dose mostly 37.9 µM), for inactives: at the highest dose activity change, negative = inhibition, usual class: inhibitors; 300,000 compounds, 1.2% hits; AID 540256; active means well fitted inhibition curve with a large enough effect; inconclusive means small, poorly fitted or top-dose-only effect, or effect the other way; inactive means flat fitted curve, though single readings scatter; tested in HEK293 cells; note: % is set by controls: 0 for no effect and ±100 for the full control effect; nearly all actives have a fitted effect of over 50% in size; luciferase read-out
Cruzain Triton = cruzain (T. cruzi) inhibition with detergent; P25779; purified cruzain, Z-FR-AMC fluorescence, 0.01% Triton; Potency, µM, inactives show max response, negative = inhibition, hits mostly inhibitors; 200,000 compounds, 0.43% hits; AID 1478; active = well fitted curve in the direction sought with a large enough effect; inconclusive = small, poorly fitted or top-dose-only effect, or another doubt; inactive = no such curve, though single readings can be large; an effect the other way counts as inactive or inconclusive;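 note: plate controls were neutral wells for no effect and buffer without enzyme for full effect; nearly all actives have a fitted effect of over 40% in size; top concentration of the series not given in the record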
Target sequence (P25779 123-467 limits assumed): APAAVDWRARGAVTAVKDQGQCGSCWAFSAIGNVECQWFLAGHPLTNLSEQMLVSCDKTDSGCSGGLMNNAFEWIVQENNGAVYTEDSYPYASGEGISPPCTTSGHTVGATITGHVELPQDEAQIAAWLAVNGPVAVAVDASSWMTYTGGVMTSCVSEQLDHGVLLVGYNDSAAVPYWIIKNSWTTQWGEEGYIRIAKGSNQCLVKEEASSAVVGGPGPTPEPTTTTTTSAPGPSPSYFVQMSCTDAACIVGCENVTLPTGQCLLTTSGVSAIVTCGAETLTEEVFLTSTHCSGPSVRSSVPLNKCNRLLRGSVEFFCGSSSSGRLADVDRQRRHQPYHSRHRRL
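Detergent-containing arm of a paired screen for aggregation-based inhibition: 0.01% Triton X-100 present. Cruzain at 1.5 nM cleaved 2 uM Z-FR-AMC at pH 5.5 with 5 mM DTT; AMC fluorescence gain over 60 s measured activity.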
2A StopGo = FMDV 2A StopGo reporter, luciferase signal; 410,000 compounds, 1.2% hits; Potency, µM (series often up to 57.9 µM), for the others: at the top dose signal change, negative = less light; human cells with a luciferase reporter of 2A StopGo recoding; control for the full effect not named in the record; AID 1159524; active = well fitted falling curve with a large enough effect; inconclusive = small, poorly fitted or top-dose-only effect; inactive = no such curve, though single readings can be large or run the other way; tested in HEK293T cells; note: % is set by controls: 0 for no effect and ±100 for the full control effect; nearly all actives have a fitted effect of over 45% in size; luciferase light after 4 h
RE007 growth inh = less growth of the S. pombe RE007 Vpr strain | Potency, µM (highest dose often 92.2 µM), without a hit: at the top dose activity change, negative = less growth | 360,000 compounds, 0.21% hits | AID 651644 | S. pombe RE007 Vpr strain, BacTiter-Glo ATP luminescence, 24 h; control for the full effect not named in the record; active = well fitted falling curve with a large enough effect; inconclusive = small, poorly fitted or top-dose-only effect; inactive = no such curve, though single readings can be large or run the other way;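 note: % is set by controls: 0 for no effect and ±100 for the full control effect; nearly all actives have a fitted effect of over 50% in size; the assay follows cell death caused by Vpr and the record does not say whether a fall means rescue or toxicity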
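Fission yeast RE007 carrying one integrated HIV-1 vpr copy, seeded at OD 0.01 in PMG+AL medium with 23 nL pinned compound. Grown 24 h at 30 degrees; viability read by BacTiter-Glo luminescence after 5 min.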
MARV entry inh = blocks Marburg virus binding to or entry into cells; AID 540276; Marburg virus pseudotyped entry inhibition, cell reporter; control for the full effect not named in the record; about a third of the inactives were read at about 46 µM; 300,000 compounds, 1.8% hits; Potency, µM (top dose mostly 37.8 µM), inactives show at the top dose activity change, negative = inhibition, actives largely listed as inhibitors; active = well fitted inhibition curve with a large enough effect; inconclusive = small, poorly fitted or top-dose-only effect, or effect the other way; inactive = flat fitted curve, though single readings scatter; tested in HEK293 cells; about a fifth of its hits are not listed in these tables; note: % is set by controls: 0 for no effect and ±100 for the full control effect; luciferase read-out
NS1 inh = inhibitors of influenza NS1 protein function. S. cerevisiae slowed by influenza A NS1, growth recovery by OD600. Potency, µM (doses to about 46.1 µM), for the others: top-dose activity, positive = more growth. 270,000 compounds, 0.4% hits; note: actives are rising curves; nearly all actives have a fitted effect of over 50% in size
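Recovery from NS1-induced slow growth read by OD600 in budding yeast switched to galactose assay medium (pH 6.0, -URA) at 1:100 dilution. Compound 23 nl per well; the matching strain lacking NS1 serves as control.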
Cruzain inh noDet = cruzain (T. cruzi) inhibition without detergent. Potency, µM, for inactives: max response, negative = inhibition, most hits filed as inhibitors. AID 1476. purified cruzain, Z-FR-AMC fluorescence, no detergent. P25779. 200,000 compounds, 2.3% hits; active = well fitted curve in the direction sought with a large enough effect; inconclusive = small, poorly fitted or top-dose-only effect, or another doubt; inactive = no such curve, though single readings can be large; an effect the other way counts as inactive or inconclusive;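 note: plate controls were enzyme without inhibitor for no effect and buffer without enzyme for full effect; nearly all actives have a fitted effect of over 40% in size; top concentration of the series not given in the record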
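Purified cruzain at 1.5 nM, pre-incubated 15 min with compound at room temperature in 100 mM sodium acetate pH 5.5, 5 mM DTT, 0.00005% Triton X-100. Reaction started with 2 uM Z-FR-AMC; AMC fluorescence increase over 60 s gives rate.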
* = called active by the depositor; u = inconclusive; x = no result given; & = joins results of further samples; [ ] = remark or other dose. Unless noted, calls come from the whole dose curve; as a rule, active means well fitted rising curve with a large enough effect; inconclusive means small, poorly fitted or top-dose-only effect; inactive means no such curve, though single readings can be large or run the other way. Potency is the fitted concentration of half-maximal effect.

mol,2A StopGo,Cruzain inh noDet,Cruzain Triton,MARV entry inh,Lassa entry inh,SARS PLP yeast,RE007 growth inh,NS1 inh
COc1ccc(/C=C/c2ccc3cccc(O)c3n2)cc1Br,51%[activator],x,x,x,x,-1%,-12%,3%
CC(=O)Oc1c(S(=O)(=O)c2ccc(C)cc2)c(C)nn1C(C)(C)C,-19%,13%,-0.7%,u,u,-13%,1%,-63%
CCCc1c(C(=O)N/N=C(\C)CCc2ccc(OC)cc2)nnn1-c1nonc1N,1%,x,x,x,x,-6%,4%,6%
O=C(Nc1ccccc1)c1cc(Cl)nc2ccccc12,-18%,18%,-3.2%,13%,9%,u,0%,4%
Cn1c(=O)c(C(=O)NC2CCCCCCC2)c(O)c2ccccc21,3%,-29%,-3.3%,-26%,8%,-4%,-10%,10%
COc1c(NC=O)c2c(c([N+](=O)[O-])c1OC)C(=O)OC2,0%,x,x,u,1%[46.1 µM],x,1%,x
CCOC(=O)c1c(/N=C/C2=C(O)CC(C)(C)CC2=O)sc2c1CCCC2,-21%,x,x,-4%[14.2 µM],-10%,1%,u,-2%
COc1ccc(NC(=O)Cn2nnnc2-c2ccccc2F)c(C)c1,5%,-12%,-0.1%,-1%[46.1 µM],28%[46.1 µM],x,x,x
CN1CCN(S(=O)(=O)c2ccc(Br)c3nsnc23)CC1,5%,-7%,-1.5%,0%,4%,2%,0%,-5%
CC1=C(C(=O)OC2CCCCC2)C(c2cccnc2)n2nnnc2N1 (stereo not given),-9%,-16%,-6.4%,u,u,-3%,-1%,u
C=C(C)Cn1c(SCC(=O)N/N=C/c2c(O)ccc3ccccc23)nc2ccccc2c1=O,-29%,16µM*,-4.5%,u,7%,10µM*,0%,18%
Cc1cccc(C)c1NC(=O)c1cnn(-c2ccccc2)c1C,0%,x,x,-22%,-18%,-6%,-9%,-19%
CCc1nc2cccnc2n1-c1ccc(CC(=O)Nc2cccc(C)c2C)cc1,-13%,-5%,16µM*,x,12%[46.1 µM],x,x,x
Cc1ccc(Cl)cc1N1CCN(C(=O)c2cc3ccc4cccnc4c3[nH]2)CC1,-11%,3%,-0.5%,x,u,x,x,x
O=C(Cc1c(F)cccc1Cl)Nc1cc(S(=O)(=O)N2CCCCC2)ccc1N1CCOCC1,6%,x,x,u,-21%,0%,4%,-3%

mol,2A StopGo,Cruzain inh noDet,Cruzain Triton,MARV entry inh,Lassa entry inh,SARS PLP yeast,RE007 growth inh,NS1 inh
CCN(CC)N=Nc1ccc(C(=O)O)cc1,5%,3%,-5.8%,5%,7%,u,2%,12%
CSc1nn(CC(=O)Nc2cc(C)ccc2C)c(N)c1S(=O)(=O)c1ccccc1,u,-5%,-3.4%,x,u,x,x,x
Cc1cccc(OCCCC(=O)NC2CCCCC2)c1,1%,x,x,-2%,1%,-1%,-9%,4%
N#CNC(N)=Nc1cccc(Cl)c1,2%,-24%,-0.7%,-18%,16%,9%,12%,-10%
CCc1cc2c(Nc3ccccc3O)nc(C)nc2s1,0%,x,x,-14%,20%,0%,19%,8%
O=[N+]([O-])c1ccc(C(O)CN2CCOCC2)cc1 (stereo not given),-3%,x,x,15%[46.1 µM],4%,11%,-7%,5%
COc1ccc(Br)cc1CN(C)CC(=O)NCc1ccc(F)cc1,-26%,x,x,-2%,-18%,1%,-1%,1%
Clc1cccc(-n2ncc3c(Nc4ccc5c(c4)OCCO5)ncnc32)c1,-10%,-13%,-1.9%,x,u,x,x,x
Cc1[nH]c(=O)[nH]c(=O)c1NC(=O)c1ccc(OC(C)C)cc1,10%,x,x,u,-14%,1%,1%,6%
COc1ccc(CCNC(=O)COC(=O)CSc2ccc([N+](=O)[O-])cc2)cc1OC,-10%,x,x,u,-3%,4%,-10%,x
CC(=O)N[C@H](C(=O)O)C(C)(C)SN=O,x,10%,-2.3%,u,1%,x,x,-7%
COc1ccc(-c2noc(CN3CCOCC3)n2)cc1OC,-9%,-7%,0.4%,u,-4%,2%,-2%,10%
CN(C)C(=O)CCc1ccc2c3c([nH]c2c1)[C@]1(CCC2CCCC2)[C@@H](C(=O)N2CCOCC2)C[C@H](CC(=O)NCCc2ccccn2)C(=O)N1CC3,62%[activator],x,x,-5%,x,-23%,-5%,x
COc1ccccc1-n1c(C)nc2cc(C(=O)NCC3CCCO3)ccc21 (stereo not given),-13%,x,x,3%[46.1 µM],-1%[46.1 µM],0%,-14%,5%
CS(=O)(=O)N1CCN=C1SCc1cccc(F)c1,3%,x,x,x,x,-3%,-4%,-7%

mol,2A StopGo,Cruzain inh noDet,Cruzain Triton,MARV entry inh,Lassa entry inh,SARS PLP yeast,RE007 growth inh,NS1 inh
COc1cccc(C(c2sc3nc(-c4ccco4)nn3c2O)N2CCC(C)CC2)c1 (stereo not given),26%,0%,-3.3%,x,12%[46.1 µM],x,x,x
Cc1cc(OCC(O)CN2CCCC2)ccc1C(C)C (stereo not given),-3%,x,x,x,x,3%,2%,22%
NC(=O)C1CCN(S(=O)(=O)c2cccc(C(=O)O)c2)CC1,-18%,6%,1.2%,-11%,0%,-4%,5%,6%
O=C1c2ccccc2C(=O)C1(CO)c1ccccc1,35%[activator],x,x,6%&6%[46.1 µM],23%,-1%,-5%,x
Cc1ccc(-n2nc3c(c2NC(=O)CC(C)C)CS(=O)C3)cc1 (stereo not given),-12%,x,x,x,x,10%,4%,3%
COc1ccccc1CCC(=O)OCC(=O)Nc1cc(S(=O)(=O)N2CCOCC2)ccc1C,-6%,x,x,17%[46.1 µM],-1%,x,3%,x
Cc1ccc(/C(O)=C2/C(=O)C(=O)N(c3ccccn3)C2c2ccc([N+](=O)[O-])cc2)cc1 (stereo not given),u,x,x,x,x,-10%,19%,17%
CCc1c(C)c2ccc(O)c(CN3CCN(c4cc(Cl)ccc4C)CC3)c2oc1=O,-6%,-4%,-4.1%,3%[46.1 µM],26%[46.1 µM],x,x,x
CC(C)c1nnc(NC(=O)c2nc(S(=O)(=O)Cc3ccccc3F)ncc2Cl)s1,28µM*,x,x,x,x,0%,-9%,27%
COC(=O)CC1NCCNC1=O (stereo not given),22%,-2%,1.6%,20%,14%,0%,6%,2%
COc1ccccc1CNC(=O)C1CCN(S(=O)(=O)c2ccc3c(c2)OCCCO3)CC1,-13%,4%,-2.0%,-10%,-22%,-3%,1%,1%
O=C(NC1CCS(=O)(=O)C1)c1cn(-c2ccccc2)nc1-c1ccccc1 (stereo not given),-3%,1%,-0.7%,0%,14%,9%,1%,-5%
COc1ccc(C(=O)N2CCNC(=O)C2CC(=O)Nc2cc(Cl)ccc2OC)cc1 (stereo not given),21%,x,x,-2%[46.1 µM],u,-2%,-12%,16%
O=C(O)CC(c1cccc(O)c1)N1Cc2ccccc2C1=O (stereo not given),1%,x,x,x,x,3%,-5%,1%
Cc1ccc(S(=O)(=O)N(C)C)cc1NC(=O)C1Cc2ccccc2CN1C(=O)c1ccco1 (stereo not given),23%,x,x,-5%[46.1 µM],-18%[46.1 µM],0%,25%,-5%

mol,2A StopGo,Cruzain inh noDet,Cruzain Triton,MARV entry inh,Lassa entry inh,SARS PLP yeast,RE007 growth inh,NS1 inh
CCOc1ccccc1CNCCSc1nnnn1C,-16%,3%,-0.2%,-15%[46.1 µM],u,x,x,x
Cc1oc(C)c2c(=O)ccc3c(c12)OC(N)=C(C#N)C3c1ccc(F)cc1 (stereo not given),-23%,-11%,-18%,1%,-13%,8%,8%,8.9µM*
Cc1nc2ccccn2c1C(=O)NNC(=S)Nc1ccc(Cl)cc1,-18%,9%,-1.1%,-18%,-4%,2%,-8%,-17%
Cc1cc(=O)n2nc(N3CCC(C(=O)Nc4ccc(C(C)C)cc4)CC3)sc2n1,u,10%,-4.0%,2%[46.1 µM],28%[46.1 µM],x,x,x
CCNC(=O)COC(=O)/C=C/c1c(C)nn(Cc2cccc(OC)c2)c1Cl,u,x,x,u,-7%,-1%,24%,x
Cc1ccnc(NS(=O)(=O)c2ccc(NC(=O)c3ccc([N+](=O)[O-])s3)cc2)n1,-10%,x,x,-28%,u,4%,-3%,-7%
Cc1ccccc1NC(=O)c1c(C)nn(-c2ccccc2)c1Cl,5%,3%,2.0%,u,13%,14%,7%,-5%
O=C(NC(=S)Nc1ccccc1)c1cc(-c2ccccc2)nc2ccccc12,15%,2%,0.8%,u,-23%,-8%,-7%,u
CC(=O)c1ccccc1NS(=O)(=O)c1ccccc1Cl,18%,x,x,-2%[46.1 µM],4%,3%,5%,-1%
COc1cccc(N=Cc2ccc(O)cc2O)c1,19%,u,-0.9%,6%,-12%,1%,9%,-13%
COc1ccc2sc3c(=O)[nH]c4ccccc4c3c2c1,-22%,u,1.4%,2%[46.1 µM],-1%,-6%,22%,-1%
NNC(=O)Cc1cn(-c2ncc(C(F)(F)F)cc2Cl)c2ccccc12,u,-22%,-3.9%,-26%,0%,-2%,1%,u
CC(C)c1nc2oc3c(NCC4CCCO4)ncnc3c2c2c1CCC2 (stereo not given),u,u,-9.6%,u,u,-4%,0%,-53%
O=C(NCC(c1cccnc1)N1CCN(c2ccccc2)CC1)Oc1ccccc1 (stereo not given),x,-2%,-5.7%,2%,-11%,-10%,-5%,-68%
O=C(Nc1cccnc1)c1cc2c(ccc3ccccc32)o1,8%,u,u,u,u,x,-16%,-6%
COc1ccc(NC(=O)CSc2nc3nc(-c4cccs4)cc(C(F)(F)F)c3c(=O)[nH]2)c(OC)c1,0%,-3%,-19%,6%,-2%,17%,-5%,5%
CCc1nnc(NC(=O)CSc2nnc(CNc3cccc(C)c3)n2-c2ccccc2)s1,4%,u,0.5%,-3%&-3%,10%,4%,-5%,-8%
O=C(CCNC(=O)c1ccc(Cl)cc1)Nc1ccc(Cl)cc1F,3%,-16%,-1.4%,u,11%,-15%,-11%,1%
